HPGD block: HPGD (human) dehydrogenase inhibition; P15428; purified HPGD, NADH fluorescence kinetic, PGE2 substrate; Potency, µM, for inactives: at the highest dose activity change, negative = inhibition, actives largely listed as inhibitors; actives 4.3% (n = 150,000); AID 894; active = well fitted inhibition curve with a large enough effect (not every such curve was filed as active); inconclusive = small, poorly fitted or top-dose-only effect, or another doubt; inactive = no such curve, though single readings can be large or run the other way;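 note: top concentration of the series not given in the record; plate controls included wells without enzyme; inactives centre near -10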
Target sequence (P15428 whole entry, looked up): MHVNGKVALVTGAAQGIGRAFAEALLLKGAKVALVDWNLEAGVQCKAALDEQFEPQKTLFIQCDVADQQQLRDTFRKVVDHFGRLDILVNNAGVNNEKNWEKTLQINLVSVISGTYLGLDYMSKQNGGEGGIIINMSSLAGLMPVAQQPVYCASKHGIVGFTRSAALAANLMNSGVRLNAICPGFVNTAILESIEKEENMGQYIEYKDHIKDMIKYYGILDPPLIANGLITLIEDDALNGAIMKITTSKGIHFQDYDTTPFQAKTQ
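20 nM HPGD preincubated 15 min at room temperature with compound in 50 mM Tris-HCl pH 8, 0.01% Tween 20. Started with 1 mM NAD+ and 30 uM prostaglandin E2; NADH fluorescence (360/450 nm) read 5 times over 30-s intervals, last minus first.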
* marks the source's active call; other numbers are inactive results; ? = inconclusive; & = joins results of further samples. % is set by controls: 0 for no effect and ±100 for the full control effect; potency is the fitted concentration of half-maximal effect. An excerpt; count on the stated rates, not on these rows.

molecule	HPGD block
O=C(NCc1ccc2c(c1)OCO2)C1CCCN1C(=O)Nc1cccc(Cl)c1 (stereo not given)	-10%
Cc1ccc(-c2nc3ncccn3c2NC2CCCCC2)o1	-7%
CC1CCN(C(=O)CSc2nc3cccnc3n2C)CC1	-27%
O=S(=O)(c1ccc2nc(-c3ccccc3)[nH]c2c1)N1CCN(c2ccc(Cl)cc2)CC1	-9%
COc1ccc(OC)c(NC(=O)CCN2CCCCCC2)c1	2%
COc1ccc2nc(Nc3nc(C)c(CCC(C)C)c(=O)[nH]3)nc(C)c2c1	-1%
O=C(Cn1c(-c2ccccc2)noc1=O)Nc1ccc(S(=O)(=O)N2CCOCC2)cc1	-7%
N#Cc1nc(COc2ccccc2)oc1NCCN1CCOCC1	-3%
CCOC(=O)C1CCCN(c2ncnc3c2cnn3-c2ccc(OC)cc2)C1 (stereo not given)	-6%
Cc1nn2c3ccccc3n(CCN3CCCCC3)c2nc1=O	-12%

Retrieved one by one from above (6):
molecule	HPGD block
CC1CCN(C(=O)CSc2nc3cccnc3n2C)CC1	-27%
Cc1nn2c3ccccc3n(CCN3CCCCC3)c2nc1=O	-12%
O=C(Cn1c(-c2ccccc2)noc1=O)Nc1ccc(S(=O)(=O)N2CCOCC2)cc1	-7%
O=S(=O)(c1ccc2nc(-c3ccccc3)[nH]c2c1)N1CCN(c2ccc(Cl)cc2)CC1	-9%
CCOC(=O)C1CCCN(c2ncnc3c2cnn3-c2ccc(OC)cc2)C1 (stereo not given)	-6%
O=C(NCc1ccc2c(c1)OCO2)C1CCCN1C(=O)Nc1cccc(Cl)c1 (stereo not given)	-10%

(list continues)
molecule	HPGD block
Cn1c(=O)c2c(nc(Oc3ccc(-c4ccccc4)cc3)n2C)n(C)c1=O	-11%
O=C(CSCc1ccc(Br)cc1)N1CCOCC1	-16%
Cc1nnsc1C(=O)NNS(=O)(=O)c1ccccc1	-7%
CC(C)(C)c1cc(CN2CCCCC2)cc(C(C)(C)C)c1O	-2%
Cc1nn(C(=O)c2cccnc2)c(C)c1Sc1ccc(Br)cc1	14µM*
N#CCCn1c(SCC(=O)NCc2ccco2)nc2ccccc21	-19%
CC(NC(=O)c1ccco1)C(=O)Nc1nc(-c2ccccn2)cs1 (stereo not given)	-10%
O=C(Nc1cccn2ncnc12)c1ccccc1	-6%
COc1cc2c(cc1OC)C1C(=O)c3c(cc4c(c3O)C=CC(C)(C)O4)OC1CO2 (stereo not given)	-13%
NC(N)=N/N=C/c1cc([N+](=O)[O-])ccc1O	-13%
Cn1cnnc1SCC(=O)c1c[nH]c2ccccc12	-6%
COc1ccc(CN2CCCCC2C)c(C)c1C (stereo not given)	1%
O=C(COC(=O)c1cccc(NC(=O)c2ccco2)c1)c1ccc(Br)cc1	-29%
O=S(=O)(NCCc1csc(-c2ccc(C(F)(F)F)cc2)n1)c1ccc2c(c1)OCCO2	-20%
CCOCCCN(C(=O)c1ccco1)C(C(=O)NC1CCCC1)c1cccc(OC)c1OC (stereo not given)	-1%
C/C(=N/NC(=O)c1cc(-c2cccc([N+](=O)[O-])c2)n[nH]1)c1ccc(Cl)cc1	-20%
COc1cccc(N/C(C)=C/C(=O)c2ccc(Br)cc2)c1	-23%
Cc1ccc(C2=NN(CCC(=O)NCCC(C)C)C(=O)CC2)cc1	1%
Cc1ccc(S(=O)(=O)CC(C)N2CCN(C3CCCCC3)CC2)cc1 (stereo not given)	2%
COc1ccc(-c2nn3c(-c4ccc(F)cc4)nnc3s2)cc1	-23%

Marked active in HPGD block, among the entries above:
molecule	HPGD block
Cc1nn(C(=O)c2cccnc2)c(C)c1Sc1ccc(Br)cc1	14µM*

Following part:
molecule	HPGD block
O=C(CSc1nc2ccccc2c(=O)n1Cc1ccc(F)cc1)NCc1cccs1	-6%
CC[C@H](C)[C@@H](NC(=O)O[C@@H]1Cc2cc(Br)ccc2O[C@H]1c1cccc(OC)c1)C(=O)OC	-7%
CC(C)OC(=O)CSc1nnc(-c2ccc(Cl)cc2Cl)o1	-12%
CCOc1cc(C2NC(=O)NC(c3ccccc3)=C2C(C)=O)ccc1OCC(N)=O (stereo not given)	-15%
CCCCCn1c(SCCc2ccccc2)nc2c1c(=O)[nH]c(=O)n2C	-12%
COc1ccc(S(=O)(=O)N2CCOCC2)cc1NC(=O)CO/N=C/c1ccccc1OC(F)F	-17%
CC(=O)c1sc(Nc2nc3ccc(F)cc3s2)nc1C	?
CCOc1cc(/C=C2\C(=O)N(Cc3ccc(C)cc3)C(C)=C2C(=O)OC)ccc1O	?
Cc1ccc(-c2noc(CCC(=O)NCc3ccco3)n2)cc1	28µM*
CCc1ccc(C(=O)COC(=O)C(Cc2ccccc2)NC(=O)c2ccc(Cl)cc2)cc1 (stereo not given)	-7%
Cc1cccc(NC(=O)Nc2ccc3c(c2)N(C)C(=O)CS3)n1	-13%
CCCCNC(=O)CCC(=O)Nc1ncc(-c2ccc(C)cc2)n1C	-11%
O=C(CSc1ccc2nnc(-c3ccc(Cl)cc3)n2n1)N1CCc2ccccc21	14µM*
CC(C)=C1C2C=CC1C1C(=O)N(c3ccc4c(c3)OCO4)C(=O)C21 (stereo not given)	-14%
OCC(Cc1ccccc1)NCc1ccccc1C(F)(F)F (stereo not given)	-7%
O=S(=O)(NCCc1ccccn1)c1ccc(F)c(F)c1	-4%
CCOC(=O)C1=C(C)N(C)C(C)=C(C(=O)OCC)C1c1ccccc1	-17%
O=C(CON1C(=O)c2ccccc2C1=O)c1ccccc1	-5%
O=C(CSc1nnc2scc(-c3ccccc3)n12)NCC1CCCO1 (stereo not given)	-3%
CCOC(=O)/C(N=Nc1c(C)n(C)n(-c2ccccc2)c1=O)=C(\C)O	-9%
COc1nc(OC)nc(N2CCC(C(=O)NCc3cccs3)CC2)n1	-18%
Cc1ccccc1OCC(=O)N/N=C/c1ccc2c(c1)OCCO2	-9%
CC(C)c1nc2ccc(NC(=O)C3CCCCC3)cc2[nH]1	-4%
CCOC(=O)c1ccc(C(=O)OCC)c(NC(=S)Nc2ccc([N+](=O)[O-])cc2OC)c1	?
CN1CCN(Cc2nc3c(c(=O)n(C)c(=O)n3C)n2Cc2cccc3ccccc23)CC1	-17%
COC(=O)c1ccc(OC)c(CSc2nnc(COc3ccccc3)o2)c1	-28%
CCNC(=O)c1cc2c(=O)n3cccc(C)c3nc2n(CCc2ccccc2)c1=N	?
Cc1cccc(/C(N)=N/OC(=O)c2cccs2)c1	20µM*
CCOc1ncccc1C(=O)OCCN1C(=O)c2ccccc2C1=O	-4%
CC(C)(C)C1CCC(C(=O)OCC(=O)c2ccc[nH]2)CC1 (stereo not given)	-11%
CC(=O)Nc1nc(NC(C)=O)c2[nH]c(CO)nc2n1	0%
Cc1ccc(CNC(=O)C(NS(=O)(=O)c2cccc3nsnc23)c2ccccc2)cc1 (stereo not given)	-14%
Cn1c(=O)c2c(nc(SCc3nn[nH]n3)n2Cc2ccccc2F)n(C)c1=O	?
CCC(C)C(NC=C1C(=O)OC(C)(C)OC1=O)C(=O)O (stereo not given)	-9%
O=C(O)[C@H]1CCCC[C@H]1C(=O)Nc1ccc(Nc2ccccc2)cc1	-12%
COc1ccc(Cc2noc(-c3ccc(OC)c(OC)c3)n2)cc1OC	-17%
CCCCOc1ccc(OC(=O)c2cccnc2)cc1	-8%
O=C(NCc1ccc(F)cc1)C(Cc1ccccc1)NS(=O)(=O)c1cccs1 (stereo not given)	1%
Cc1c(N/C(=N/S(=O)(=O)c2ccc(Cl)cc2)c2ccccc2)c(=O)n(-c2ccccc2)n1C	-6%
CCN1CCc2nc(SCC(=O)Nc3ccc(OC)cc3)c(C#N)cc2C1	-9%
COc1cccc2c(=O)n(CC(=O)Nc3cccc(F)c3)ccc12	?
CCOC(=O)C1=C(O)/C(=C/c2ccc(-c3ccccc3C(=O)O)o2)SC1=Nc1ccc(OC)cc1	?
COc1ccccc1OCc1nc(C#N)c(N2CCC(C(N)=O)CC2)o1	-24%
CS/C(=N\S(=O)(=O)c1cccs1)Nc1ccc(F)cc1	-5%
O=C(N/N=C/c1ccc(N2CCOCC2)o1)c1ccccc1[N+](=O)[O-]	-19%
O=C(O)C1CC=CCC1C(=O)NCc1cn2ccccc2n1 (stereo not given)	?
O=C(N/N=C/c1ccncc1)c1ccc(-n2cccc2)cc1	-10%
COCCCNC(=O)CC1Oc2ccccc2NC1=O (stereo not given)	-7%
Cc1ccc(NC(=O)c2cnn(-c3ccccc3)c2NC(=O)c2ccco2)cc1C	-6%
COC(=O)c1ccc(Oc2cc(C)nc(NCc3ccccc3)n2)cc1	-10%

Next section:
molecule	HPGD block
NS(=O)(=O)c1cc(C(=O)N2CCc3ccccc32)c(Cl)cc1Cl	-1%
CCN1C(=O)N[C@H](c2ccc(Br)cc2)C(C(=O)OC)=C1C	-6%
CC1=NN(c2ccc(Cl)cc2)C(=O)C1C(c1ccccc1O)c1c(C)[nH]n(-c2ccc(Cl)cc2)c1=O (stereo not given)	7.9µM*
CCOC(=O)C1=C(C)OC(N)=C(C#N)C1c1ccc(OC)c(CSc2ccccn2)c1 (stereo not given)	-11%
CC(C)n1c(C(=O)OCC(=O)NCc2ccc3c(c2)OCO3)cc2sccc21	-29%
CC(=O)Nc1cccc(/C(C)=N/NC(=O)c2cccs2)c1	-11%
Cc1ccc(-n2c(=O)c3sccc3n(CC(=O)NCc3ccco3)c2=O)cc1	0%
COCCCNCCCCOc1c(Cl)cc(C)cc1Br	-6%
COc1ccc(OC)c(-n2c(-c3cnccn3)n[nH]c2=S)c1	-13%
CC(NC(=O)C1CCCN(S(=O)(=O)c2cccc3nonc23)C1)c1ccccc1 (stereo not given)	-10%
NC(=O)C1CCCN(CCc2ccccc2)C1 (stereo not given)	1%
CC(C)COC(=O)COc1cc(Cl)c(Cl)cc1Cl	-5%
COCC(=O)N1CCC2(CC1)CCN(c1ccccn1)CC2	?
CS(=O)(=O)Nc1cccc(-c2nc(NCc3cccs3)c3ccccc3n2)c1	?
CCC1CCC/C1=N\NC(=O)CCC(=O)Nc1ccccc1Cl (stereo not given)	-2%
Cc1ccc(C(=O)Nc2ccc(Oc3ccc(C(=O)O)c(C(=O)O)c3)cc2)cc1C	-11%
COc1ccc(S(=O)(=O)Nc2ccc3oc(C)c(C(=O)O)c3c2)cc1	0%
COc1cc(C(=O)O)ccc1OCC(=O)N1CCOCC1	0%
COCC(=O)NCc1nc2ccccc2n1Cc1ccccc1F	-10%
CCOc1ccc(/C=C/C(=O)Nc2ccccc2C(F)(F)F)cc1	-19%
O=C(O)c1ccccc1SC1CC(=O)N(c2ccccc2)C1=O (stereo not given)	-4%
NC(=O)c1ccc(NC(=O)CCCc2nc(-c3ccccc3Cl)no2)cc1	-12%
CCCCNc1nc(N(C)c2ccccc2)nc(-n2ccnc2)n1	-11%
O=c1oc2ccc3ccccc3c2cc1-c1nnc(-c2cccs2)o1	-11%
N#Cc1c(-n2cccc2/C=N/O)sc2c1CCCC2	-19%
CCCn1nc2ccccc2c1P(=N)(N1CCOCC1)N1CCOCC1	-10%
COc1ccc(CNC(=S)Nc2cc(C)cc(C)c2)cc1	-10%
O=C1CCC(c2ccccc2)(c2ccccc2)CC1	-9%
Cc1noc(C)c1C(=O)N1CCC2(CC1)CN(c1cccc(-c3ccccc3)c1)C2	?
CC12CCC(C(=O)N3CCc4ccccc43)(CC1=O)C2(C)C (stereo not given)	-4%
COc1ccc(-c2cc(=O)c3c(O)cc(O)cc3o2)cc1	-20%&-17%&-9%
COc1ccccc1NC(=O)CSc1nnc(Cc2cccn2C)n1-c1ccc(F)cc1	-11%
CC(=O)c1ccc(NC(=S)NCCc2ccccn2)cc1	-7%
COc1cccc(-c2nccc(NC3CCNCC3)n2)c1	-3%
CC(Nc1cccc2ccccc12)C(=O)N/N=C/c1ccc([N+](=O)[O-])cc1 (stereo not given)	-22%
COc1cc(NC(=O)CC2NCCNC2=O)cc(OC)c1 (stereo not given)	-1%
COc1ccc(N(Cc2cc3cc(OC)ccc3[nH]c2=O)C(=O)C2CCCO2)cc1 (stereo not given)	-28%
Cc1ccc(-c2nn(CC(=O)Nc3ccc4c(c3)nc3n4CCOC3)c(=O)c3ccccc23)cc1	?
Cn1c(CNC(=O)c2ccco2)nnc1SCC(=O)Nc1cccc(Br)c1	?
Cc1cn(C2CC(N=[N+]=[N-])C(CO)O2)c(=O)[nH]c1=O (stereo not given)	-5%
Cc1ccc(C)c(NS(=O)(=O)c2cc(C(=O)N3CCc4ccccc4C3)ccc2Cl)c1	5%
O=C(O)CSCCc1ccccc1	2%
Cc1ccc(Nc2nnc(SCn3nnc4ccccc4c3=O)s2)cc1	-28%
CCOC(=O)Cn1c(=O)c2c(nc(N3CCCCC3)n2Cc2ccccc2)n(C)c1=O	-10%
CCOC(=O)CCN1CCN(C(=O)c2ccc(-n3c(=O)c(=O)[nH]c4ccccc43)cc2)CC1	-19%
CC(Cc1cccs1)NC(=O)Nc1ccc(F)cc1 (stereo not given)	-16%
CCOP(=O)(OCC)C(NC(=O)Nc1ccc(Cl)cc1)C(=O)N(CC)CC (stereo not given)	-2%
CC(=O)c1ccc(OCC(=O)c2ccc(-c3ccccc3)cc2)cc1	-10%
O=C(O)c1cccnc1Sc1ccccc1	-15%
